# Bioassay records deposited in PubChem by Broad Institute.
# RanGTP-Impb inh = disruptors of Ran-importin-beta complex formation – biochemical, FRET, CFP-Ran, YFP-importin-beta, homogeneous, primary screen; cell-free CFP-Ran/YFP-importin-beta FRET ratio; inhibition, % (test concentration not listed); 300,000 compounds, 1.1% hits;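 active = most replicates above 15%; inconclusive = exactly half above 15%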;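 also: 0% = DMSO wells and 100% = Ran loaded with GDP instead of GTP; wells of about 40 µL received 100 nL stock; the first replicate is given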
# MLL AF4-AF9 inh = inhibitors of human MLL-AF4/AF9 interaction. AlphaScreen, biotin-AF4 peptide binding to FLAG-AF9. AID 651704. P42568. 350,000 compounds, 0.47% hits. inhibition, % at 10 µM;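 active = every replicate reaching a set inhibition limit, whatever the replicate mean, cut at about 25% in these data; inconclusive = mean inhibition reaches that limit but some replicates miss it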;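 also: 0% = plate neutral control median and 100% = total signal loss; the record names both 10 and 1 µM as test concentration; the first replicate is given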
# Target sequence (P42568 whole entry, looked up): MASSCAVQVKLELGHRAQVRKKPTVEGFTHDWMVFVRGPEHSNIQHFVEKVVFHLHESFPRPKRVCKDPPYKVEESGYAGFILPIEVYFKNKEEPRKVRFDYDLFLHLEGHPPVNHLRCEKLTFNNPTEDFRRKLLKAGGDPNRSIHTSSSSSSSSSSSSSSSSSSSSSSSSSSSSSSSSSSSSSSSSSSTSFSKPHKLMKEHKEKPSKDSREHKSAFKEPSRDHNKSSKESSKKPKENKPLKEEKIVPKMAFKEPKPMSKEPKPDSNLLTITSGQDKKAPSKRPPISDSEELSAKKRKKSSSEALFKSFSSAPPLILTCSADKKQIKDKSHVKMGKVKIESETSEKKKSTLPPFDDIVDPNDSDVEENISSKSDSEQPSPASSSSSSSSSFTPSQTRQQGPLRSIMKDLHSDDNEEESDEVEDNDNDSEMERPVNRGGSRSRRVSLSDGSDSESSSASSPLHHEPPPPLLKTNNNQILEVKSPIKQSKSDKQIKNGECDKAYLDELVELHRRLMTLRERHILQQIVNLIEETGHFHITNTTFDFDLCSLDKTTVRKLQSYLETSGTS
# Beta cell apopt = blocks beta cell apoptosis; 300,000 compounds, 0.8% hits; INS-1E cytokine-induced death, ATP luminescence, 48 h; percent of positive-control rescue, neutral wells zero; protection from apoptosis, % (concentration not given with the values);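 active = all replicates at 75% or more, or half of them and the mean; inconclusive = half reach 75% but not the mean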;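 also: 0% = cytokine-treated negative control wells and 100% = positive control rescue; higher means more ATP so stronger rescue from cytokine killing; wells of about 40 µL received 100 nL stock; the first replicate is given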
# ALR inh = blocks human ALR sulfhydryl oxidase activity | P55789 | purified ALR, DTT oxidation, H2O2 HRP-luminol luminescence | inhibition, % (no concentration beside the values) | 290,000 compounds, 3.8% hits | AID 485317;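 active = mean and each replicate at 75% or more; inconclusive = only one of the two met; inactive = neither met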;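 also: stock transfer was 7.5 nL into about 7.5 µL; 0% = neutral wells and 100% = wells with inactivated enzyme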
# Target sequence (P55789 whole entry, looked up): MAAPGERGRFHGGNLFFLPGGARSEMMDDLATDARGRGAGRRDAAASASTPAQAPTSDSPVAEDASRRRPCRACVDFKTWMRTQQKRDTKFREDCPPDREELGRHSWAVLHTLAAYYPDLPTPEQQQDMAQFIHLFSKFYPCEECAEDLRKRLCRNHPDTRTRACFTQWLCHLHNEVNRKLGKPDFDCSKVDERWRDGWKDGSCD
# Ecoli rRNA inh = inhibitors of bacterial rRNA selective over humanized ribosomes; E. coli WT GFP vs humanized-ribosome RFP mutants, fluorescence, 24 h; active compounds read low; DMSO median 0, no signal -100; GFP signal change (wild-type ribosome), % (test concentration not listed); 350,000 compounds, 1.6% hits; AID 720706;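 active = significant combined selectivity score with lowered wild-type GFP, culture density cut under 30%, mutant RFP and density less affected; inactive = any of these conditions unmet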; also: one replicate is shown; some compounds called inactive have numbers as strong as hits
# T cruzi inh = T. cruzi replication inhibition | inhibition, % (test concentration not listed) | T. cruzi beta-gal in NIH3T3, luminescence, 90 h | 300,000 compounds, 1.4% hits;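 active = mean inhibition across valid replicates above about 55%, limit read from the data; inconclusive = mean below that limit but half or more replicates reach it; inactive = mean below it, under half of replicates reach it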;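 also: signal also drops with host cell toxicity which is not excluded here; 0% = plate median of DMSO wells and 100% = zero luminescence signal; higher percent means less beta-gal luminescence so fewer parasites; stock transfer was 50 nL into about 50 µL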
# FGF22 binding = binders of recombinant human FGF22 by thermal shift; SYPRO orange fluorescence; percent of sucrose octasulfate shift, DMSO zero; calls only at 9.99 µM; 340,000 compounds, 1.5% hits; AID 651658;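 active = melting point raised past a set limit in the mean and every replicate; inconclusive = no clear call; three in four hits are not shown here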
# Target sequence (Q9HCT0 whole entry, looked up): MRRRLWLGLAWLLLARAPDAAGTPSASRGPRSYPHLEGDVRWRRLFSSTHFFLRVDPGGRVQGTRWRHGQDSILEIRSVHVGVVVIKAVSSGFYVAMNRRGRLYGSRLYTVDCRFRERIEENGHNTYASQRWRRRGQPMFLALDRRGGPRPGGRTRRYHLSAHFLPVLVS
# Calb FLC = C. albicans growth modulation with fluconazole. 300,000 compounds, 0.57% hits. C. albicans CaCi-2 (fluconazole-resistant clinical isolate) + fluconazole, Alamar Blue growth, 48 h. growth inhibition, % (test concentration not listed);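 active = most replicates above 75%; inconclusive = exactly half above 75%; inactive = most below 75%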;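 also: all wells also contain fluconazole at 8 µg/ml as a sub-toxic cotreatment; 0% = median of DMSO wells and 100% = median of geldanamycin control wells; wells of about 8 µL received 7.5 nL stock; the first replicate is given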
# Ecoli rRNA inh OD600 = recorded beside Ecoli rRNA inh, whose call it bears; OD600 change, %; measured here: OD600 growth;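 optical density of the mix in the first replicate; 0 = DMSO median and -100 = no signal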
# Ecoli rRNA inh RFP = recorded beside Ecoli rRNA inh, whose call it bears; RFP signal change, %; measured here: RFP humanized mutant strains;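 first replicate; 0 = DMSO median and -100 = no signal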
# * marks the source's active call; other numbers are inactive results; i = inactive; u = inconclusive; x = not tested or not shown. This is a subset; rates above refer to the full screens.
1	Nc1ccc(NC(=O)NC2CCCCC2)cc1[N+](=O)[O-]
2	Oc1ccc(/C=C/c2cnccn2)cc1
3	O=C1/C(=C/c2ccc(N3CCOCC3)o2)SC(=Nc2ccccc2)N1CCc1c[nH]c2ccccc12
4	CCCCC1=CC2=CC(=O)C(C)(OC(=O)CC)C(=O)C2=CN1CCc1ccccn1 (stereo not drawn)
5	CC(C)OC(=O)c1cc(C(=O)c2cc(F)ccc2O)coc1=N
6	COc1ccc(C(C(=O)NC2CCCC2)N(C(=O)c2ccoc2C)c2ccccc2)cc1 (stereo not drawn)
7	CCc1cc(=O)oc2c(C)c(OCC(=O)N3CCC(C(=O)O)CC3)ccc12
8	CC(=O)c1ccc(NC(=O)COC(=O)c2nc(Cl)ccc2Cl)cc1
9	Cc1snc(S(=O)(=O)/C(C#N)=N/Nc2ccc(C(F)(F)F)cc2)c1C#N
10	CCOc1ccc(C(=O)N(Cc2ccc(N(C)C)cc2)C2CCS(=O)(=O)C2)cc1 (stereo not drawn)

screen / no.,1,2,3,4,5,6,7,8,9,10
RanGTP-Impb inh,-2.6,1.1,-19,4.5,u,-1.6,2.2,0.9,0.3,-16
MLL AF4-AF9 inh,1.6,0.9,x,0.4,x,-0.1,-1.8,1.8,x,x
Beta cell apopt,-11,-1,101*,3,6,4,x,-1,-2,-11
ALR inh,-4,83*,-26,-32,27,3,-7,3,x,20
Ecoli rRNA inh,10,-1,x,3,x,7,0,2,x,x
Ecoli rRNA inh OD600,12,5,x,3,x,2,16,-2,x,x
Ecoli rRNA inh RFP,1.3,-4.5,x,-7.5,x,1.1,14,-1.1,x,x
T cruzi inh,-7,-2,71*,0,-3,-4,-11,-10,-7,4
FGF22 binding,i,i,x,i,x,i,i,i,x,x
Calb FLC,-20,-22,1,-3,0,3,3,6,-5,5

# For convenience, part of the list above.
1	Nc1ccc(NC(=O)NC2CCCCC2)cc1[N+](=O)[O-]
2	Oc1ccc(/C=C/c2cnccn2)cc1
3	O=C1/C(=C/c2ccc(N3CCOCC3)o2)SC(=Nc2ccccc2)N1CCc1c[nH]c2ccccc12

screen / no.,1,2,3
RanGTP-Impb inh,-2.6,1.1,-19
MLL AF4-AF9 inh,1.6,0.9,x
Beta cell apopt,-11,-1,101*
ALR inh,-4,83*,-26
Ecoli rRNA inh,10,-1,x
Ecoli rRNA inh OD600,12,5,x
Ecoli rRNA inh RFP,1.3,-4.5,x
T cruzi inh,-7,-2,71*
FGF22 binding,i,i,x
Calb FLC,-20,-22,1

# Next part
11	O=S(=O)(c1ccccc1)c1cnc(-c2cccnc2)nc1-c1ccccc1
12	CCOc1ccc(OCc2ccc(C(=O)N3CCOCC3)cc2)cc1
13	Cc1cc(C)c(S(N)(=O)=O)c(C)c1-n1cnnn1
14	CCCc1c(C(=O)Nc2cc(C(C)(C)C)on2)cnn1-c1ccccc1
15	CC(Sc1nnc(CC(C)c2ccccc2)n1N)C(N)=O (stereo not drawn)
16	Cn1nc(C(=O)Nc2cccc(C(=O)NC3CC3)c2)c2ccccc2c1=O
17	O=C1CC(SC(=Nc2ccccc2)Nc2ccccc2)C(=O)N1c1cccc(Cl)c1 (stereo not drawn)
18	COc1cc2c(cc1OC)CN(c1nc(-c3cccnc3)nc3ccccc13)CC2
19	O=C(NCc1ccc(F)cc1)c1cc2ccccn2n1
20	CCc1noc(C)c1C(=O)Nc1nc2ccc(OC)cc2s1

screen / no.,11,12,13,14,15,16,17,18,19,20
RanGTP-Impb inh,3.3,-2.2,-2.2,-2.6,-5.6,x,-2.8,-2.7,4.1,1.7
MLL AF4-AF9 inh,x,x,x,-4.3,0.8,-1.1,x,8.8,-1.5,1.1
Beta cell apopt,-7,0,0,12,-3,-6,x,7,-1,5
ALR inh,-12,-4,10,0,22,-2,-3,3,2,-6
Ecoli rRNA inh,x,x,x,10,9,7,x,-32,4,0
Ecoli rRNA inh OD600,x,x,x,9,10,6,x,-28,7,4
Ecoli rRNA inh RFP,x,x,x,-0.8,-0.6,-4.2,x,7.5,-1.6,-0.1
T cruzi inh,-30,1,-7,x,-14,x,32,55*,-11,-10
FGF22 binding,x,x,x,i,i,i,x,i,i,i
Calb FLC,-24,4,0,-15,x,x,16,7,-5,2

# 3 compounds drawn at random from those above:
13	Cc1cc(C)c(S(N)(=O)=O)c(C)c1-n1cnnn1
17	O=C1CC(SC(=Nc2ccccc2)Nc2ccccc2)C(=O)N1c1cccc(Cl)c1 (stereo not drawn)
12	CCOc1ccc(OCc2ccc(C(=O)N3CCOCC3)cc2)cc1

screen / no.,13,17,12
RanGTP-Impb inh,-2.2,-2.8,-2.2
MLL AF4-AF9 inh,x,x,x
Beta cell apopt,0,x,0
ALR inh,10,-3,-4
Ecoli rRNA inh,x,x,x
Ecoli rRNA inh OD600,x,x,x
Ecoli rRNA inh RFP,x,x,x
T cruzi inh,-7,32,1
FGF22 binding,x,x,x
Calb FLC,0,16,4

# Remaining list, next part
21	CCCCCOc1ccc(C(=O)OCC(=O)Nc2cc(C)c(C)cc2[N+](=O)[O-])cc1
22	CC1=C(c2ccccc2)[N+](=O)C2(CCCC2)N1[O-]
23	COc1cc(C(C)=O)ccc1OCC(=O)Nc1cc(C)on1
24	CCOc1ccc(NC(=O)CN2C(=O)NC(CCSC)C2=O)cc1 (stereo not drawn)
25	COc1ccccc1C(=O)Nc1ccc2nc(SCC(=O)N(C)C)sc2c1
26	O=C(Nc1ccc(Br)cc1F)c1cccnc1
27	COc1cccc(C(C(=O)NCc2ccco2)N(Cc2ccco2)C(=O)Cn2nnc3ccccc32)c1 (stereo not drawn)
28	CN(Cc1nc(-c2cccnc2)no1)S(=O)(=O)c1ccc2ccccc2c1
29	O=C(NCc1nc(-c2ccccc2)no1)Nc1ccc(F)cc1
30	O=C1C(=O)N(Cc2cccnc2)C(c2cccc([N+](=O)[O-])c2)/C1=C(/O)c1ccc2c(c1)OCO2 (stereo not drawn)

screen / no.,21,22,23,24,25,26,27,28,29,30
RanGTP-Impb inh,4.3,0.2,x,2.0,1.8,2.0,3.3,3.6,-0.5,-0.2
MLL AF4-AF9 inh,-1.3,x,1.8,-0.7,x,-1.2,x,x,-0.7,-1.2
Beta cell apopt,-1,-1,-2,0,0,-2,-3,-6,-1,-2
ALR inh,x,-1,-4,-2,100*,-3,-2,-8,-7,-2
Ecoli rRNA inh,8,x,4,5,x,4,x,x,0,-1
Ecoli rRNA inh OD600,11,x,11,12,x,8,x,x,1,19
Ecoli rRNA inh RFP,-1.3,x,0.3,0.1,x,-3.8,x,x,-0.2,2.0
T cruzi inh,-3,-2,x,-9,1,13,3,6,-6,13
FGF22 binding,i,x,i,i,x,i,x,x,i,i
Calb FLC,-10,-4,x,20,3,-6,33,19,-7,-4

# Continued.
# Each structure is followed by: RanGTP-Impb inh | MLL AF4-AF9 inh | Beta cell apopt | ALR inh | Ecoli rRNA inh | Ecoli rRNA inh OD600 | Ecoli rRNA inh RFP | T cruzi inh | FGF22 binding | Calb FLC
31. COc1ccccc1/C=C/C(=O)OCC(=O)c1cc(C)n(C)c1C
  x | 7.8 | 0 | 4 | 2 | -22 | 3.8 | x | i | x
32. O=C(CSc1ccc(-c2ccco2)nn1)c1ccccc1
  0.1 | -3.4 | -10 | 98* | 2 | 13 | -3.3 | -2 | i | -23
33. O=C(Nc1ccc(Br)cc1)c1ccc2c(c1)OCO2
  -0.9 | 2.5 | 6 | -1 | 7 | 6 | 4.1 | -8 | i | -52
34. O=C(Nc1nc(-c2cccs2)cs1)c1ccc(Cl)s1
  -0.1 | 2.9 | x | 97* | -27 | -33 | -3.0 | 47 | i | -3
35. O=C(O)c1ccccc1Nc1ccc([N+](=O)[O-])cc1C(=O)O
  1.2 | 3.1 | -10 | x | 9 | -1 | 0.4 | -5 | i | 15
36. CC1=C(C(=O)OCc2ccccc2)C(c2ccccc2)NC(=O)N1CCCC(=O)O (stereo not drawn)
  2.1 | -0.9 | -6 | 2 | -10 | 0 | 3.3 | -26 | i | -4
37. O=C(Nc1nnc(Cc2ccc(Cl)cc2)s1)c1ccncc1
  -1.5 | -6.4 | 0 | -4 | -26* | 0.4* | 10* | -18 | i | 29
38. CCOC(=O)N1CCN(S(=O)(=O)c2ccc(C)c(C)c2)CC1
  -4.9 | x | -8 | -2 | x | x | x | -13 | x | -5
39. O=C(c1cc2ccccc2oc1=O)N1CCN(c2ncccn2)CC1
  5.7 | x | 0 | -15 | x | x | x | -16 | x | -7
40. CN(Cc1cccs1)C(=O)COc1cccc2c1OC(C)(C)C2
  x | -0.3 | -1 | 4 | -3 | -3 | 1.3 | x | i | x
41. CCOc1ccc(OCC(=O)N2CCC3(CC2)CC(=O)c2ccccc2O3)cc1
  6.3 | 1.3 | -9 | -1 | -2 | -12 | 1.0 | 2 | i | 0
42. O=c1c2ccccc2nc(N/N=C/c2c(O)ccc3ccccc23)n1O
  -1.8 | x | 98* | -9 | x | x | x | -10 | x | 106*
43. CC(=O)Oc1c(/C=C(\C#N)C(N)=O)[nH]c2ccccc12
  16* | -7.6 | x | x | 8 | -6 | 31 | -3 | i | -8
44. NNC(=O)CNC(=O)c1cccc(Br)c1
  -0.9 | x | 2 | 13 | x | x | x | 8 | x | -3
45. COCCCn1c(-c2ccco2)nc2ccccc2c1=O
  u | x | -4 | -19 | x | x | x | -5 | x | -8
46. CC(C)Cc1nnc(NC(=O)CCC(=O)N2CCN(C3CCCC3)CC2)s1
  0.6 | 0.9 | 0 | -1 | 5 | 12 | -2.6 | 22 | i | -2
47. CC(/C=C/C=C/c1ccccc1)=N\NC(=O)c1cccnc1
  2.1 | 2.5 | 3 | 1 | 4 | -2 | -1.2 | -19 | i | 17
48. Cc1ccc(S(=O)(=O)N2CCN(C(=O)CSc3nncs3)CC2)cc1
  -0.8 | -1.2 | 4 | x | 10 | 6 | -2.7 | -4 | i | 2
49. Cc1c(S(=O)(=O)N2CCCC2)c(=O)n(C)c(=O)n1C
  2.3 | 0.3 | x | 0 | 6 | 5 | 0.6 | 0 | i | -4
50. Cc1cccc(C)c1NC(=O)N1CCC(C(=O)c2ccc(F)cc2)CC1
  7.4 | -6.3 | 1 | 1 | 1 | 4 | -1.5 | 12 | i | -9
51. COCc1c(C)cc(C)c(/C=N/O)c1C
  0.0 | x | 2 | -2 | x | x | x | -26 | x | -4
52. CCOC(=O)c1c(-c2ccc(OC)cc2)csc1NC(=O)CCN1C(=O)c2ccccc2C1=O
  -1.6 | 7.2 | -2 | -9 | 8 | 4 | 1.1 | 8 | i | 0
53. CCC(CC)c1nnc(NC(=O)CN2C(=O)C3C4C=CC(C4)C3C2=O)s1 (stereo not drawn)
  -4.1 | x | -2 | -12 | x | x | x | 8 | x | 2
54. S=c1[nH]c2ccccc2n2c(=S)[nH]nc12
  4.9 | -4.2 | -4 | 99* | -6 | -13 | -5.1 | -19 | i | -2
55. O=C(COc1ccc([N+](=O)[O-])cc1)N/N=C/c1ccccn1
  -2.5 | x | -5 | 3 | x | x | x | 9 | x | -6
56. COC(=O)c1ccc(CSc2nnc3c(Cl)cc(Cl)cn23)o1
  5.1 | 0.3 | -5 | -3 | 1 | 0 | -6.1 | 9 | i | -16
